TRPML1 blocker: qHTS for Inhibitors of the Human Mucolipin Transient Receptor Potential 1 (TRPML1) | Mucolipin-1 (Homo sapiens), Q9GZU1 | TRPML1-inducible cells, Ca2+ dye fluorescence, FDSS; stronger effect = lower value; inhibition of EC80 agonist-evoked calcium signal | activity change, negative = inhibition, % (test concentration not listed) | 390,000 compounds, 0.02% hits; in the data active means activity change below about -50%; inconclusive means about -30% to -50%; inactive means above about -30%;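 note: stimulus is agonist 54-4 at its EC80 concentration; % is set by controls: 0 for no effect and ±100 for the full control effect; compound concentration not given in the record; the text of the record puts the active cut at -80%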
Target sequence (Q9GZU1 whole entry, looked up): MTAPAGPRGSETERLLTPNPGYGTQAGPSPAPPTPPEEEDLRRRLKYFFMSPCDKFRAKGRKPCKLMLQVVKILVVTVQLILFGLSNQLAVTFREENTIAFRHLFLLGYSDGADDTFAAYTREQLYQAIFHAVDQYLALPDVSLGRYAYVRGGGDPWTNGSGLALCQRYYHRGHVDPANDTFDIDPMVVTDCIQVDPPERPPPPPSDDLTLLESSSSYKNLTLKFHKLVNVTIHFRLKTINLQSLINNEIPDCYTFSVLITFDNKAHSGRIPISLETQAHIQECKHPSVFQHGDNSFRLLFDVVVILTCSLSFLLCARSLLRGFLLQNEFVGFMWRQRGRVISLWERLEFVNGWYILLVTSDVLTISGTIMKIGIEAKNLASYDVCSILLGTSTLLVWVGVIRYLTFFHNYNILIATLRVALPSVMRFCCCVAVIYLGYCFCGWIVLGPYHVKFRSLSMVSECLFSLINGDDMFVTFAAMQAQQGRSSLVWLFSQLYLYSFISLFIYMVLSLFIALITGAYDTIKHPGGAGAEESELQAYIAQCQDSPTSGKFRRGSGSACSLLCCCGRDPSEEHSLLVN
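Tet-induced TRPML1-DL cells loaded with Ca8 no-wash calcium dye were read kinetically on FDSS. Compound addition was followed by EC80 agonist 54-4 (4 uM final); inhibition was read over 110 s.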
D2 potentiator: Beta-Arrestin HTS for Positive Allosteric Modulators of the Human D2 Dopamine Receptor: Potentiators; DiscoveRx D2 beta-arrestin cells, luminescence, 90 min; 100% = 57 uM dopamine signal; potentiation, % (no concentration beside the values); 360,000 compounds, 0.23% hits; AID 624464, 2012; active = potentiation of 50% or more; inconclusive = 30% to 50%; inactive = 30% or less;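 note: compound concentration not given in the record; tested on top of an EC20 dose of dopamine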
Target sequence (P14416 whole entry, looked up): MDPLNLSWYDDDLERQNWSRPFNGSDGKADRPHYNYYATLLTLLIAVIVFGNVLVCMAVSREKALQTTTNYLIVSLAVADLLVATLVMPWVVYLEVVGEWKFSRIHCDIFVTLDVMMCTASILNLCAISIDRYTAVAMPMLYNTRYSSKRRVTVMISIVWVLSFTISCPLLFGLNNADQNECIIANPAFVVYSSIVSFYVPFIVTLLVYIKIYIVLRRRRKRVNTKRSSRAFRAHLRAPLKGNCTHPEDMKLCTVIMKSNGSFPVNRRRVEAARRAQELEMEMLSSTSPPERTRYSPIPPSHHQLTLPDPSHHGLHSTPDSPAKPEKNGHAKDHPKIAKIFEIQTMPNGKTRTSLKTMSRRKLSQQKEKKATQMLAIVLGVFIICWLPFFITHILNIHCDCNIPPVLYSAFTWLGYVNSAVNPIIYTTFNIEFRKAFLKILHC
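D2 cells co-treated with compound plus 50 nM dopamine (EC20) for 90 min at 37 deg C to detect potentiation. Beta-arrestin recruitment was read as enzyme-fragment luminescence after 1 h at ambient temperature. Full response was set by 57 uM dopamine.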
TRPML1 agonist: qHTS for Agonists of the Human Mucolipin Transient Receptor Potential 1 (TRPML1); 410,000 compounds, 0.12% hits; TRPML1-expressing cells, Ca2+ dye fluorescence, FDSS; host cell line not named in the record; reference of the full effect not given here; Mucolipin-1 (Homo sapiens), Q9GZU1; activation, % (no concentration beside the values); in the data active = activation above about 50%; inconclusive = about 30% to 50%; inactive = below about 30%; note: 0% is about no effect; the text of the record puts the active cut at 80%
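Kinetic FDSS Ca2+ read in Tet-induced TRPML1-DL cells (ABD Ca8 dye plus quencher, 45-90 min RT loading): baseline, then compound, then 110 s agonist window; EC80 agonist 54-4 at 4uM final added afterwards for a 110 s antagonist window.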
Six1-Eya2 inh: qHTS Assay for Inhibitors of the Six1/Eya2 Interaction. Homeobox protein SIX1 (Homo sapiens) + Protein phosphatase EYA2 (Homo sapiens), …. AlphaScreen GST-Six1/His-Eya2 binding, biochemical; stronger effect = lower value; control for the full effect not named in the record. AID 651725, 2012. 360,000 compounds, 0.56% hits. activity change, % (test concentration not listed); in the data active = activity change below about -65%; inconclusive = about -30% to -65%; inactive = above about -30%; note: % is set by controls: 0 for no effect and ±100 for the full control effect
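Compounds are tested against tagged Six1 and Eya2 proteins bridged by glutathione donor and nickel acceptor beads; after a one-hour incubation at 37 °C without light, AlphaScreen emission is recorded.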
D2 ag: Beta-Arrestin HTS for Positive Allosteric Modulators of the Human D2 Dopamine Receptor: Agonists. D(2) dopamine receptor (Homo sapiens), P14416. DiscoveRx PathHunter D2 beta-arrestin, luminescence, 90 min; 100% = 57 uM dopamine signal. activation, % (no concentration beside the values). 360,000 compounds, 0.084% hits; in the data active = activation above about 40%; inconclusive = about 15% to 40%; inactive = below about 15%; note: compound concentration not given in the record; the text of the record calls up to 30% inactive
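Agonist mode: compounds alone added to overnight-plated D2 PathHunter cells for 90 min at 37 C, with 57 uM final dopamine (EC100) defining full response. Beta-arrestin recruitment detected by chemiluminescent reagent, read after 1 h at ambient temperature.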
PINK1 modulator: A Quantitative High throughput Screen to Identify Chemical Modulators of PINK1 Expression. 410,000 compounds, 0.2% hits. Potency, µM (top dose mostly 76.6 µM), without a hit: at the top dose activation (PINK1 increase), hits mostly activators. PINK1 immunofluorescence, high-content cytometry, 24 h. AID 624263, 2012; active = well fitted activation curve with a large enough effect; inconclusive = small, poorly fitted or top-dose-only effect; inactive = flat fitted curve, though single readings scatter; cell line not stated here;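 note: potency is the fitted concentration of half-maximal effect; % of control where 0% means no effect; nearly all actives have a fitted effect of over 65% in size; a mitochondrial uncoupler was the plate control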
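Cells are seeded, rested 12 hours, then given compound at five concentrations or DMSO for 24 hours. After fixation, blocking and antibody staining, PINK1 amount and mitochondrial localization are scored; CCCP serves as control.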
* = called active by the depositor; ? = inconclusive; · = not tested or not shown; & = joins results of further samples; [ ] = dose if it differs, or a comment. The order is random. Share with any hit: about 1%.

SMILES	TRPML1 blocker	D2 potentiator	TRPML1 agonist	Six1-Eya2 inh	D2 ag	PINK1 modulator
COc1cc(CN2C[C@@H](CO)O[C@@H](n3cnc4c(N5CCOCC5)ncnc43)C2)cc(OC)c1OC	14	4	0.0	-4	5.2	0.9%
COc1cc(S(=O)(=O)N2CCCCCC2)c(OC)cc1Br	10	-18	1.7	9	0.2	1.4%
COc1cc(OC)nc(Nc2nc(C(N)Cc3ccc(Cl)cc3)cs2)n1 (configuration not stated)	·	-7	-0.1	-11	8.6	-0.9%
Nc1nnc(SCC(=O)Nc2cccnc2Cl)s1	4	6	0.3	3	5.9	-1.5%
Cn1c(=O)c2c(nc(SCC(=O)N3CCCCCC3)n2C)n(C)c1=O	-4	-6	-0.8	-3	-1.4	1.2%
CCOC(=O)c1cc2c(=O)n3ccccc3nc2n(CC2CCCO2)c1=NC(=O)c1ccc(C(C)(C)C)cc1 (configuration not stated)	2	·	1.0	·	·	8.0%
Cc1c(C(=O)NC2CCCc3ccccc32)cccc1[N+](=O)[O-] (configuration not stated)	6	-1	0.3	3	-1.0	1.3%
CCCN1C(=O)C(NS(=O)(=O)c2ccc(N)cc2)(C(F)(F)F)C(C(=O)OC)=C1C (configuration not stated)	-1	-3	0.9	3	0.9	-0.9%
COc1ccccc1N1CCN(C2CCCN(C(=O)CCC(C)=O)C2)CC1 (configuration not stated)	0	-1	-0.3	1	-3.2	2.1%
O=C(NCc1cccnc1)C(=O)c1c[nH]c2ccccc12	3	-4	-1.2	-2	-3.2	-0.1%
O=C(CNC(=O)c1ccc2c(c1)OCO2)N/N=C/c1cc(Br)ccc1O	2	-12	1.3	-18	-3.6	11%
CCc1ccc(C(=O)COC(=O)c2cnccn2)cc1	7	19	-0.4	0	-3.1	-2.2%
Cc1cc2oc(C(=O)Nc3sc4c(c3C(=O)NCC3CCCO3)CCC4)cc(=O)c2cc1C (configuration not stated)	-9	·	-0.2	·	·	27%
O=C(O)C1C2C=CC(C2)C1C(=O)NCc1cccnc1 (configuration not stated)	35	-6	-0.4	1	-3.1	0.4%
O=C(NCCc1ccccc1)c1cc2sccc2n1Cc1ccccc1	33	-19	4.2	-3	-3.9	-1.8%
CCCN(C(=O)c1nn(-c2ccc(OC)c(Cl)c2)c(=O)c2c1c1ccccc1n2C)c1ccccc1F	-2	·	-0.7	·	·	-0.7%
O=C(Nc1ccccc1-c1ccccc1)C1CCC1	-1	-5	0.0	4	1.2	1.0%
COc1cc2c(cc1OC)[C@H](C)N(C(=O)COc1ccccc1)CC2	-8	-1	-0.3	1	-4.5	0.1%
Nc1cccc2c1C(=O)N(C(=O)/C=C/c1cccc(Br)c1)C2=O	6	-8	0.0	0	-0.4	-0.1%
Cc1sc(NC(=O)c2ccco2)c(CN2CCN(c3ccc(F)cc3)CC2)c1C	-1	-4	-1.0	3	1.3	3.6%
Cn1c(SCCC#N)nnc1-c1ccccc1F	7	-9	-0.8	0	-3.6	0.5%
COc1ccc(C2=C(C=O)Cc3ccccc3O2)cc1	7	-10	-0.4	29	-6.6	0.0%
COc1ccc(C(=O)n2cc(C(C)=O)c3ccccc32)cc1	40	-15	0.8	6	-0.4	6.9%
C/C=C(/C)C(=O)OC1CC(C)(C)C[C@H]2C3=CC[C@@H]4[C@@]5(C)CCC(O[C@@H]6O[C@@H](C(=O)O)[C@@H](O)C(O[C@@H]7OC[C@H](O)[C@@H](O)[C@@H]7O[C@@H]7OC(CO)C(O)[C@@H](O)[C@@H]7O)C6O[C@@H]6OC(CO)C(O)C(O)C6O)[C@@](C)(CO)[C@@H]5CC[C@]4(C)[C@]3(C)CC(O)[C@@]12CO (some centres not stated)	-11	-21	7.4	-4	13	0.9%
COc1ccc(NC(=O)C2=CC(c3ccco3)=NS(=O)(=O)N2C)cc1OC	-8&4	1	0.9&0.0	-5	0.2	1.4%&-1.0%

Record cards, as listed above. Screens in order: TRPML1 blocker | D2 potentiator | TRPML1 agonist | Six1-Eya2 inh | D2 ag | PINK1 modulator
Nc1cccc2c1C(=O)N(C(=O)/C=C/c1cccc(Br)c1)C2=O reads 6 | -8 | 0.0 | 0 | -0.4 | -0.1%
O=C(CNC(=O)c1ccc2c(c1)OCO2)N/N=C/c1cc(Br)ccc1O reads 2 | -12 | 1.3 | -18 | -3.6 | 11%
Cc1cc2oc(C(=O)Nc3sc4c(c3C(=O)NCC3CCCO3)CCC4)cc(=O)c2cc1C (configuration not stated) reads -9 | · | -0.2 | · | · | 27%
COc1cc(CN2C[C@@H](CO)O[C@@H](n3cnc4c(N5CCOCC5)ncnc43)C2)cc(OC)c1OC reads 14 | 4 | 0.0 | -4 | 5.2 | 0.9%

(continued)
SMILES	TRPML1 blocker	D2 potentiator	TRPML1 agonist	Six1-Eya2 inh	D2 ag	PINK1 modulator
Cc1cc(C)c2c(N)c(C(=O)Nc3ccc([N+](=O)[O-])cc3)sc2n1	5	-8	2.3	-15	9.3	-1.7%
Cc1c(N=Cc2c(O)n(C)c(=O)c3ccccc23)c(=O)n(-c2ccccc2)n1C	17	-3	0.0	0	-2.4	3.8%[38.3 µM]
CCn1c(C)c(C)c2cc(C(=O)NCCCN3CCCCC3)ccc21	6&17	-38	-0.2&1.4	-17	-1.2	0.1%&-1.4%
O=C(NCCOc1ccccc1)c1ncn[nH]1	-1	?	-0.3	?	-1.3	1.7%[38.3 µM]
Cc1ccc(-c2nsc3c(N4CCC(C(N)=O)CC4)ncnc23)cc1	-18	-6	1.1	8	-1.4	5.4%
N#CC12CCCCC1CC1CCCCC1(C#N)N2CCO (configuration not stated)	-7	0	-0.7	-8	-2.3	2.3%
Cc1cc(C)c(NC(=O)c2cccc(NC(=O)c3ccco3)c2)c(C)c1	-9	1	0.9	5	0.2	0.8%
CCN1C(=O)/C(=C\c2ccncc2)SC1=S	16	0	0.0	0	7.9	-0.1%
Cc1ccc(CNC(=O)C(Cc2ccccc2)n2cccc2)cc1 (configuration not stated)	-12	1	1.0	-8	-0.5	2.9%
CCOC(=O)c1c2ccccc2[n+]([O-])n1[C@@H](C)C(N)=O	-19	-16	0.5	8	-4.8	0.3%
COc1ccc(/C=C2\SC(=S)N(CC(=O)NNC(=O)c3ccncc3)C2=O)cc1	-4	0	4.0	0	-2.4	?
CCN(C(=O)CSc1nc2ccccc2n1C)C1CCS(=O)(=O)C1 (configuration not stated)	0	-7	-0.5	-7	-4.2	1.8%
Cc1ccccc1N(C(=O)Cc1cccs1)C(C(=O)NC1CCCCC1)c1cn(C)nc1C (configuration not stated)	9	-11	0.4	5	-1.8	2.6%
O=C(CC1CCCCC1)NCc1ccc(Cl)cc1	2	-3	0.7	9	-0.1	1.3%
CCC(=O)N1CCc2cc(Br)cc(S(=O)(=O)N3CCN(C(=O)c4ccco4)CC3)c21	-6	14	1.0	-2	1.3	0.5%
CC(C)[C@H](NC(=O)c1ccccc1)C(=O)NCCc1ccccc1	25	-2	0.2	9	-3.8	-0.7%
Cc1cccc2nc(CSc3nc4ccccc4[nH]3)cn12	-5	-3	0.1	-1	2.6	-0.8%
CCOc1ccc2nc(/N=C/c3nc(-c4ccccc4)oc3O)sc2c1	29	-10	13	10	0.1	-2.5%
CCOc1ccc(S(=O)(=O)N2CCN(C(=O)c3ccco3)CC2)cc1	-6	0	0.1	10	2.7	-1.4%
Cc1cc(C)c(NC(=O)CSc2nc3ccccc3c(=O)n2CCCN2CCOCC2)c(C)c1	4	-12	0.3	3	-1.6	0.6%
CC(=O)Nc1ccc(NC(=O)CCn2c(=S)oc3ccccc32)cc1	-3	-3	-0.3	9	-4.0	8.6%
Cc1ccccc1CO/N=C/c1[nH]ncc1Br	-7	0	1.5	7	4.2	-0.4%
CCOC(=O)C1=CC[C@@H](c2ccncc2)N(S(=O)(=O)c2ccc(C)cc2)C1	35	-3	0.3	6	-5.9	9.3%
CC(=O)Nc1ccc(S(=O)(=O)NCc2csc(C)n2)cc1	-13	-2	0.6	7	4.1	-4.0%[38.3 µM]
Cc1ccc(-c2c(NCCc3ccccc3)c(=O)c2=O)cc1	0	-4	-1.1	5	-0.7	1.5%

Later entries
SMILES	TRPML1 blocker	D2 potentiator	TRPML1 agonist	Six1-Eya2 inh	D2 ag	PINK1 modulator
O=C(O)CCCC(=O)Nc1cccc([N+](=O)[O-])c1	-3	-7	-1.0	5	-0.8	-0.7%
CN1CCN(/[N+]([O-])=N/Oc2ccc([N+](=O)[O-])cc2[N+](=O)[O-])CC1	-9	·	1.2	·	·	-0.2%
CC(C)CC(=O)/C=C/n1c(=S)oc2ccccc21	-18	-12	0.3	-9	-16	?
COc1cc(OC)nc(Nc2nc(C(N)c3ccccc3)cs2)n1 (configuration not stated)	·	-10	-0.6	?	4.5	6.1%
CC(=O)Nc1ccc(-c2ccnc3c2CC(C(=O)Nc2cccnc2)O3)cc1 (configuration not stated)	·	6	-0.9	-7	3.9	5.6%
CSc1nc(C)cc(OCC(=O)n2nc(C)cc2C)n1	14	-7	0.0	2	-1.8	-1.9%[38.3 µM]
COc1cccc(N2CCN(C(=O)Cn3ncc4c3-c3ccccc3OC4)CC2)c1	43	·	-1.1	·	·	-0.6%
CCC(O)c1cc2c(cc1NC(=O)c1ccc(C)cc1)OCCO2 (configuration not stated)	-10	-1	0.6	7	3.5	2.8%
Cn1c(N)nc(N)c(NC=O)c1=O	·	4	-0.2	-5	4.5	1.7%
COc1ccc(OC)c(C(Nc2ccccc2)P(=O)(OC(C)C)OC(C)C)c1 (configuration not stated)	-2	-15	0.4	-28	-1.2	-0.4%
CCOc1ccc(-c2nnn(CC(=O)NCc3ccco3)n2)cc1OCC	-17	-3	-2.0	-4	0.2	-0.8%
c1ccc2[nH]c(CSc3nc4ccccc4s3)nc2c1	40	-16	1.7	8	3.6	-1.0%
CC1CC(C)CN(C(=O)Cn2ncc3c([nH]c4ccccc43)c2=O)C1 (configuration not stated)	13	3	0.4	0	2.1	6.0%
C#CCOc1ccc(C2C(C#N)=C(N)Oc3cc(O)ccc32)cc1 (configuration not stated)	-3	5	1.3	6	-1.3	1.5%
Clc1cccc(-n2ncc3c(Nc4ccc5c(c4)OCCO5)ncnc32)c1	-12	·	0.8	·	·	1.3%
CCOc1ccc(-c2nnc3ccc(SCC(=O)N4CCCCC4)nn23)cc1	6	-7	0.3	-2	-2.4	2.0%
COc1cc(OC)nc(Oc2cccc(C(F)(F)F)c2)n1	16	-5	-1.0	-6	-1.6	2.7%
O=C(CSc1cccc2cccnc12)Nc1cc(C(=O)O)cc(C(=O)O)c1	19	-8	0.1	?	0.2	1.1%
Cc1cc(=O)[nH]c(SCC(=O)NC2CCCCCC2)n1	4	-15	0.2	0	-2.2	-0.2%
Clc1ccc2nc3c4ccccc4cnn3c2c1	-5	-1	0.2	1	2.5	0.7%
COc1ccc(CN(C)C(=O)COc2cccc(-n3cnnn3)c2)cc1OC	-3	-1	-0.6	5	-3.8	1.6%

High-throughput results deposited in PubChem by National Center for Advancing Translational Sciences (NCATS).
